Assay outcomes deposited in PubChem by several laboratories.
UCH37 inh: human UCH37 deubiquitinating enzyme inhibition; Q9Y5K5; purified proteasome/UCH37, Ub-AMC cleavage fluorescence; inhibition, % (concentration not given with the values); 330,000 tested, 0.33% active; AID 588478;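 active = mean of two replicates above 20%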;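 note: 0% = compound-free wells with enzyme and 100% = wells lacking proteasome; stock transfer was 100 nL into about 20 µL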
Target sequence (Q9Y5K5 whole entry, looked up): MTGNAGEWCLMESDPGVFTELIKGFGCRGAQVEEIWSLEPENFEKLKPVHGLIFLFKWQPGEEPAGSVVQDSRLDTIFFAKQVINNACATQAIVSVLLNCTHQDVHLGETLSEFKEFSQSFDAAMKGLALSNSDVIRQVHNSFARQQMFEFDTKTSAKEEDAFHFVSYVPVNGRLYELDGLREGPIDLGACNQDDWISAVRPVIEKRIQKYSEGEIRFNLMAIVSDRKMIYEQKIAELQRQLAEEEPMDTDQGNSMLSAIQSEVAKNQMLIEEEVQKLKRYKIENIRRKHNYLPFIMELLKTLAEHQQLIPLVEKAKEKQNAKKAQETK
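assay system = human UCH37 enzyme supplied as purified proteasome complex | amount = proteasome at 0.15 nM in the dispensed enzyme solution | schedule = 30 min compound-proteasome preincubation then 25 min substrate reaction, room temperature | measured by = fluorescence, ex 355 nm, em 460 nm | benchmarks = no-proteasome wells (full inhibition) and compound-free wells (no inhibition)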
Bfl-1 A1 inh: inhibitors of the anti-apoptotic protein A1, read as caspase activation; 330,000 tested, 0.066% active; MEF A1-2A-BIM cells, Caspase-Glo 3/7 luminescence, 3 h; percent of clofoctol response, vehicle zero; AID 2462; caspase activation, % (no concentration beside the values);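 active = over half of replicate activation scores above 10%, or exactly half above 10 with the replicate mean above 10; inconclusive = replicate mean below 10 yet half the replicates above 10; inactive = over half of replicates below 10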;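 note: wells of about 30 µL received 50 nL stock; many hits fall short of the cut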
RanGTP-Imp inh: disruptors of Ran-importin-beta complex formation – biochemical, FRET, CFP-Ran, YFP-importin-beta, homogeneous, primary screen; 300,000 tested, 1.1% active; cell-free CFP-Ran/YFP-importin-beta FRET ratio; inhibition, % (concentration not given with the values);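 active = most replicates above 15%; inconclusive = exactly half above 15%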;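 note: 0% = DMSO wells and 100% = Ran loaded with GDP instead of GTP; wells of about 40 µL received 100 nL stock; the first replicate is given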
LANA-H2B inh: blocks KSHV LANA binding to histone H2A/H2B; Q9QR71; cell-free LANA-H2A/H2B peptide, fluorescence polarization; inhibition, % (test concentration not listed); 320,000 tested, 0.6% active; in the data active = inhibition mostly above about 10%, no sharp cut-off; inactive = mostly below about 6.7%;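 note: stock transfer was 7.5 nL into about 10 µL; 0% = median of vehicle wells and 100% = median of positive control wells; one replicate is shown; the record names a cut of 25% in any replicate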
Beta apoptosis: beta cell apoptosis inhibition. 300,000 tested, 0.8% active. protection from apoptosis, % (no concentration beside the values). AID 435005. INS-1E cytokine-induced death, ATP luminescence, 48 h; percent of positive-control rescue, neutral wells zero;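 active = all replicates at 75% or more, or half of them and the mean; inconclusive = half reach 75% but not the mean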;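 note: 0% = cytokine-treated negative control wells and 100% = positive control rescue; higher means more ATP so stronger rescue from cytokine killing; wells of about 40 µL received 100 nL stock; the first replicate is given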
Beta2AR agonist: activates human beta-2 adrenergic receptor causing internalization; P07550; 340,000 tested, 0.43% active; Am2.2-beta2AR cells, FAP receptor internalization, flow cytometry; reference of the scale not given here; response, % (test concentration not listed);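 active = response above a set limit, near 3 SD of response in nonfluorescent compounds, cut at about 42% in these data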;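 note: stock transfer was 100 nL into about 11 µL; a reference agonist was the positive control; negative values mostly stem from fluorescent compounds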
Target sequence (P07550 whole entry, looked up): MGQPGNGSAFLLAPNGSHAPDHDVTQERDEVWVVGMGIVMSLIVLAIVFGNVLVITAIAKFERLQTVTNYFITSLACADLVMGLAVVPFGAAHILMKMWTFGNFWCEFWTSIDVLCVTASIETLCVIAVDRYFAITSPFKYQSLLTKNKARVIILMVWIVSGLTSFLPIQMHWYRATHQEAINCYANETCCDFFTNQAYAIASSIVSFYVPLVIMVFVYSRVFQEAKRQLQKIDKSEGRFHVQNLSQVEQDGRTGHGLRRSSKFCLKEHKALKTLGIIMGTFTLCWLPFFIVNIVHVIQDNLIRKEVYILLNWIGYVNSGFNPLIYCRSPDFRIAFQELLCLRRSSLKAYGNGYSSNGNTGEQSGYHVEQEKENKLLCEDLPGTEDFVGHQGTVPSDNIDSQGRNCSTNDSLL
T cruzi repl: blocks replication of Trypanosoma cruzi | T. cruzi beta-gal in NIH3T3, luminescence, 90 h | inhibition, % (no concentration beside the values) | 300,000 tested, 1.4% active;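 active = mean inhibition across valid replicates above about 55%, limit read from the data; inconclusive = mean below that limit but half or more replicates reach it; inactive = mean below it, under half of replicates reach it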;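 note: signal also drops with host cell toxicity which is not excluded here; 0% = plate median of DMSO wells and 100% = zero luminescence signal; higher percent means less beta-gal luminescence so fewer parasites; stock transfer was 50 nL into about 50 µL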
Calb FLC: C. albicans growth modulation with fluconazole. growth inhibition, % (test concentration not listed). AID 1979. C. albicans CaCi-2 (fluconazole-resistant clinical isolate) + fluconazole, Alamar Blue growth, 48 h. 300,000 tested, 0.57% active;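 active = most replicates above 75%; inconclusive = exactly half above 75%; inactive = most below 75%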;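 note: all wells also contain fluconazole at 8 µg/ml as a sub-toxic cotreatment; 0% = median of DMSO wells and 100% = median of geldanamycin control wells; wells of about 8 µL received 7.5 nL stock; the first replicate is given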
Active calls of the source: *; ? = inconclusive; / = not tested or not shown.

SMILES	UCH37 inh	Bfl-1 A1 inh	RanGTP-Imp inh	LANA-H2B inh	Beta apoptosis	Beta2AR agonist	T cruzi repl	Calb FLC
O=C(NCc1ccncc1)c1ccc(Cl)c(S(=O)(=O)N2CCCCC2)c1	1.3	-1.0	-0.5	-1.4	-8	13	13	-4
O=C(O)c1cc(-c2ccc(N3CCOCC3)cc2)nn1-c1ccccc1Cl	6.5	-0.7	-1.5	6.6	-1	2	-15	-7
COc1cc(CC(=O)Nc2ccc(Cl)c(C(F)(F)F)c2)cc(OC)c1OC	0.2	1.1	-0.9	-3.0	5	1	-6	8
CCOc1ccc(CN(C)CC(=O)Nc2cccc3ccccc23)cc1OC	0.3	0.2	-0.9	-5.6	-9	5	50	-3
CS(=O)(=O)c1ccc2nc(NC(=O)Nc3ccccc3F)sc2c1	-0.5	-8.1	1.0	6.4	-1	4	-5	-1
Cc1onc(-c2ccccc2Cl)c1C(=O)NCc1ccco1	-1.8	-0.5	4.5	-0.3	/	9	-31	-15
COCc1nnc(NC(=O)c2c(-c3c(Cl)cccc3Cl)noc2C)s1	/	-0.5	5.6	-1.9	-3	5	0	33
CC(=O)C1=C(O)C=C(c2ccco2)CC1c1ccco1 (stereo not given)	7.5	-0.7	-3.7	0.9	-6	9	0	0
Cc1ncccc1C(=O)N1CCCC(CNC(=O)c2ccc(-c3ccccc3)cc2)C1 (stereo not given)	1.9	0.5	?	5.1	-2	3	4	-11
CC(=O)NCCC(=O)Nc1nc2c(ccc3ccccc32)s1	-1.2	0.0	-3.5	-2.0	-1	1	-3	4
COc1ccc(OC)c(NC(=O)CCNS(=O)(=O)c2cccc3nsnc23)c1	0.5	-0.8	1.1	-2.4	-20	-3	-4	10
O=C(CCC1CCCCC1)NC1=NCCS1	0.7	0.0	-0.8	3.2	-10	4	-13	-1
CN(CC(=O)Nc1ccccc1Br)C(=O)CCc1nc2ccccc2c(=O)[nH]1	1.7	0.6	2.2	-2.0	3	2	-9	/
COc1ccc(-c2cc(C(F)F)n3ncc(C(=O)N4CCSCC4)c3n2)cc1	-9.2	-0.6	1.7	4.8	-14	1	2	0
CC(=O)Nc1ccc(CN2CCC(CO)(CCOc3ccccc3)CC2)cc1	2.6	-0.7	3.7	8.6	-7	6	10	-10
COc1ccc(/C(N)=N/O)cc1O	2.8	0.0	0.6	-0.9	0	2	-19	0
CSCC(C)N1CCC(N2CCC(C(=O)NCc3ccccn3)CC2)CC1 (stereo not given)	1.2	0.0	19*	14	2	-10	-4	-3
COC(=O)COc1ccc(S(=O)(=O)Nc2ccc3c(c2)OCO3)cc1	1.3	0.5	3.5	0.0	-2	-1	-20	28
CCCCN(C(=O)c1c(C)noc1C)c1c(N)n(CCCC)c(=O)[nH]c1=O	-12	0.1	4.4	-3.1	6	4	-6	-3
COc1ccc2c(c1)c(C(=O)N1CCN(C)CC1)c(C)n2-c1ccccc1	3.3	0.7	3.3	-0.7	-3	0	-7	31

Results in Bfl-1 A1 inh, for four of the compounds above:
structure | Bfl-1 A1 inh
CSCC(C)N1CCC(N2CCC(C(=O)NCc3ccccn3)CC2)CC1 (stereo not given) | 0.0
COc1cc(CC(=O)Nc2ccc(Cl)c(C(F)(F)F)c2)cc(OC)c1OC | 1.1
CN(CC(=O)Nc1ccccc1Br)C(=O)CCc1nc2ccccc2c(=O)[nH]1 | 0.6
COC(=O)COc1ccc(S(=O)(=O)Nc2ccc3c(c2)OCO3)cc1 | 0.5

4 of these compounds in a different format.
> COc1ccc(OC)c(NC(=O)CCNS(=O)(=O)c2cccc3nsnc23)c1
- UCH37 inh: 0.5
- Bfl-1 A1 inh: -0.8
- RanGTP-Imp inh: 1.1
- LANA-H2B inh: -2.4
- Beta apoptosis: -20
- Beta2AR agonist: -3
- T cruzi repl: -4
- Calb FLC: 10
> O=C(CCC1CCCCC1)NC1=NCCS1
- UCH37 inh: 0.7
- Bfl-1 A1 inh: 0.0
- RanGTP-Imp inh: -0.8
- LANA-H2B inh: 3.2
- Beta apoptosis: -10
- Beta2AR agonist: 4
- T cruzi repl: -13
- Calb FLC: -1
> CN(CC(=O)Nc1ccccc1Br)C(=O)CCc1nc2ccccc2c(=O)[nH]1
- UCH37 inh: 1.7
- Bfl-1 A1 inh: 0.6
- RanGTP-Imp inh: 2.2
- LANA-H2B inh: -2.0
- Beta apoptosis: 3
- Beta2AR agonist: 2
- T cruzi repl: -9
- Calb FLC: /
> COc1ccc(-c2cc(C(F)F)n3ncc(C(=O)N4CCSCC4)c3n2)cc1
- UCH37 inh: -9.2
- Bfl-1 A1 inh: -0.6
- RanGTP-Imp inh: 1.7
- LANA-H2B inh: 4.8
- Beta apoptosis: -14
- Beta2AR agonist: 1
- T cruzi repl: 2
- Calb FLC: 0

Remaining list, next part.
SMILES	UCH37 inh	Bfl-1 A1 inh	RanGTP-Imp inh	LANA-H2B inh	Beta apoptosis	Beta2AR agonist	T cruzi repl	Calb FLC
NC(=O)C1CCCc2c1n(Cc1ccccc1)c1ccccc21 (stereo not given)	6.6	-0.6	7.4	0.5	6	1	3	-23
N#Cc1cnn(-c2ncnc3sc(-c4ccccc4)cc23)c1N	-0.3	/	1.8	/	/	-7	-23	2
Cc1ccc(COn2nnc3ccc(S(=O)(=O)N4CCOCC4)cc32)cc1	-3.0	-1.7	/	0.3	0	-2	/	/
COc1ccccc1CNC(=O)c1ccc(CNc2c(N3CCCC3)c(=O)c2=O)cc1	6.3	0.4	0.5	8.7	-2	-6	-6	2
NC1=NC[C@@H](Cc2ccc(O)cc2)N1CCc1cc(C(F)(F)F)cc(C(F)(F)F)c1	0.6	0.6	1.3	-3.4	-6	-4	-6	-2
Cc1cc2ncc(-c3ccc(Cl)cc3)cn2n1	-0.4	-9.3	2.9	2.3	4	-2	-7	-18
O=C(Nc1c(F)cccc1F)c1ccc2c(c1)CCN2S(=O)(=O)c1ccccc1	1.4	-0.1	-1.7	-3.8	5	26	8	11
CCCCc1c(O)c2ccccc2n(CCCC)c1=O	/	-0.2	2.3	14*	-5	-4	-5	17
CC1(C)[N+]([O-])=C2C(=[N+]([O-])C1(C)C)c1ccccc1/C2=N\O	/	-0.1	-1.2	0.6	5	8	1	1
Cc1ccc(CNC(=O)C(NS(=O)(=O)c2cccs2)C(C)C)cc1 (stereo not given)	4.6	-0.4	4.0	-0.3	-6	-3	-4	-73
CCC(=O)N1CCc2cc(OC)c(OC)cc2C1COc1ccc(OC)cc1 (stereo not given)	3.6	0.1	?	-0.8	2	-3	-7	3
CCN(CC)CCCN1C(=O)c2oc3ccccc3c(=O)c2C1c1cccnc1 (stereo not given)	-0.4	1.7	3.7	-5.4	-1	-1	1	-2
CCOc1ccc(NC(=S)N(CCN2CCOCC2)Cc2cc3cc4c(cc3[nH]c2=O)OCO4)cc1	-25	0.4	-17	10	2	-3	19	-7
COc1ccc(NC(=O)c2cc3c(CO)cnc(C)c3oc2=Nc2cccc(C)c2)c(OC)c1	4.2	/	3.3	/	/	14	5	3
CC1CCN(C(=O)c2ccc(CSc3ccc(Cl)cc3)cc2)CC1	1.0	1.1	-1.9	-0.8	6	1	22	2
O=C(c1cc(-c2ccc(Cl)cc2)on1)N1CCN(c2ccccc2)CC1	0.1	1.4	-1.5	-1.3	8	15	-12	9
N=C1SCC(=O)N1c1ncc(Cc2ccc(F)cc2)s1	0.6	-0.8	-1.8	-6.4	21	14	53	6
COc1cc(S(=O)(=O)N2CCOCC2)ccc1NC(=O)CSc1n[nH]c(=O)[nH]c1=O	4.9	0.7	0.5	0.6	-3	3	-7	-3
O=C(CN1C(=O)c2ccccc2C1=O)c1ccccc1	2.4	-0.7	6.2	-1.0	1	-7	9	2
COc1cccc(C(C)NC(=O)Cc2cccs2)c1 (stereo not given)	0.5	-0.2	-0.6	-6.9	2	2	-6	-9
COc1ccc(S(=O)(=O)N2CCOCC2)cc1NC(=O)CSc1ncccn1	1.5	-0.3	/	-2.7	5	2	/	/
Cc1ccc(N=c2ssnc2Cl)cc1	5.7	0.7	-3.6	0.7	-1	0	2	3
COc1ccc(NC(=O)Cn2nnc(C(N)=O)c2N)c(OC)c1	0.5	1.4	4.5	-0.5	-5	5	0	22
CCOC(=O)c1[nH]c2ccc(Br)cc2c1NC(=O)CCN1CCCC(C)(C)C1	5.7	0.9	2.0	-3.1	4	10	11	-18
CN(C)[C@H]1N(C(=O)c2ccc(Br)cc2)N=C2c3ccccc3S(=O)(=O)N21	0.7	1.0	-4.7	4.0	/	-1	-8	1
CNC(=O)c1sc(Nc2ccc(OCc3ccccc3)cc2)nc1C	-1.2	0.5	4.5	-4.9	3	-6	33	18
CCOC(=O)c1ccc2[nH]cc(C(C)=O)c(=O)c2c1	2.7	-0.2	21*	6.1	-1	-23	-7	13
Cn1cc(CCC(=O)NCc2cccc(Cl)c2)c2ccccc21	-2.4	0.4	-0.1	0.8	/	-5	-7	-2
NC(=O)COc1ccccc1C(=O)NC12CC3CC(CC(C3)C1)C2	0.9	1.2	1.5	-0.5	-21	-8	-7	-2
C=C(C)C1CC=C(C)/C(=N\NC(=O)CNc2cccc3ccccc23)C1 (stereo not given)	/	-0.1	-0.1	1.2	-1	-8	-14	19
COc1ccccc1NC(=O)Nc1ccccc1C(N)=O	-3.3	0.1	/	2.7	-6	-388	2	-25
CC(C)=CCN1CCC(n2nccc2NC(=O)c2ccccc2Cl)CC1	1.4	0.0	1.6	1.6	-14	7	11	-1
O=C(CSc1n[nH]c(-c2ccncc2)n1)Nc1ccc(F)cc1	1.4	-0.4	-1.8	-5.7	1	23	4	-1
CCN(CCCNC(=O)C1CCN(S(=O)(=O)c2c(C)[nH]c(=O)[nH]c2=O)CC1)c1cccc(C)c1	1.1	0.8	-1.0	4.9	-2	5	6	1
COc1ccc(NC(=O)[C@H](C)NC(=O)[C@@H]2Cc3ccccc3CN2C(=O)OC(C)(C)C)cc1	-2.0	0.2	3.5	-7.6	2	-11	-4	-14
CCc1c(C)nc2ncnn2c1NC1CCCc2ccccc21 (stereo not given)	4.8	-0.5	-4.7	-2.4	15	17	2	11
COc1ccc(S(=O)(=O)CCc2nc3ccccc3s2)cc1	1.3	0.6	-0.5	-5.6	-5	3	5	-7
CN(CCOc1ccccc1Cl)Cc1ccccc1	3.4	-0.6	-1.2	-0.7	/	5	-10	8
COc1ccc(/C=C2\N=C(C)OC2=O)cc1OC(C)=O	2.7	0.0	-1.8	3.0	-3	13	-13	5
O=C(C[C@@H]1C/C=C\C[C@H](NC(=O)OCC2c3ccccc3-c3ccccc32)C(=O)OC[C@@H]2CCCN2C1=O)N[C@@H](CO)Cc1ccccc1	-2.3	-0.3	/	1.8	5	2	/	/

Hits appear at their usual frequency (roughly 4.3% active in at least one column).
